Source: PubChem BioAssay (ICCB-Longwood Screening Facility, Harvard Medical School)
UCH37 inh: blocks the human deubiquitinase UCH37. Q9Y5K5. purified proteasome/UCH37, Ub-AMC cleavage fluorescence. inhibition, % (no concentration beside the values). 0.33% of 330,000 active;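 active = mean of two replicates above 20%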;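 note: 0% = compound-free wells with enzyme and 100% = wells lacking proteasome; stock transfer was 100 nL into about 20 µL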
Target sequence (Q9Y5K5 whole entry, looked up): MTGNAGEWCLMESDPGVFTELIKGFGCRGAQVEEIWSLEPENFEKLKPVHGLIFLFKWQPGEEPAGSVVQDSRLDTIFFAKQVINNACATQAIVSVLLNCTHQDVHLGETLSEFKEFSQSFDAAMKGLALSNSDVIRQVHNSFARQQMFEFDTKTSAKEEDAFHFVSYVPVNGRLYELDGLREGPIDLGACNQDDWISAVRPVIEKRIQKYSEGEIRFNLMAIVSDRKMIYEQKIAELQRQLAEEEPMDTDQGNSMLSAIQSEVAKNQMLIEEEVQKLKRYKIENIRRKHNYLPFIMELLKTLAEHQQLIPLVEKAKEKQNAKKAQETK
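Schedule: 30 min plus 25 min, room temperature / Material: human UCH37 within purified proteasomes / Technique: AMC fluorescence intensity at 355/460 nm / Buffer or medium: pH 7.4 Tris-HCl (50 mM) with ovalbumin, ATP-MgCl2, DTT / Controls: wells without proteasome as full block, compound-free enzyme plus substrate as uninhibited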
Ecoli growth: E. coli growth inhibition. Escherichia coli growth, OD600, 23 h; active compounds read low. OD600 absorbance (no concentration beside the values). 0.21% of 330,000 active;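 active = OD600 absorbance below the run mean of sample wells minus 3.6 SD, in any replicate, cut at about 0.56 in these data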;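 note: stock transfer was 300 nL into about 60 µL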
* = called active by the depositor; i = inactive. These rows are one share of the data; count on the stated rates, not on these rows.

Each structure is followed by: UCH37 inh	Ecoli growth
> COc1ccc(C(C)=NNC(=O)CSc2nnc(C)s2)cc1
    5.0	0.7
> CN(C)/C=C(\C#N)C(=O)NN=Cc1ccccc1
    6.5	0.69
> CCN(CC)c1ccc(C=NNC(=O)OC)c(O)c1
    3.0	0.7
> O=[N+]([O-])c1ccccc1NN=Cc1c[nH]c2ccccc12
    3.0	0.74
> COc1ccc(C(=O)ON=C(C)c2cccs2)cc1
    6.3	0.79
> Cc1ccc(S(=O)(=O)N=C(c2ccc(F)cc2)N(C)C)cc1
    1.0	0.69
> CC(CC(=O)Nc1ccc(Cl)cc1)=NNC(=O)C(=O)NCCO
    6.3	0.68
> Cc1cc(C(=O)NN=Cc2ccc(N(C)C)o2)cs1
    11	0.7
> Cc1cc(C)nc(NN=Cc2ccccc2)n1
    5.0	0.65
> O=C(CCn1cnc2ccccc21)NN=C/C=C/c1ccccc1
    3.8	0.66

4 of the compounds above, field by field.
> COc1ccc(C(C)=NNC(=O)CSc2nnc(C)s2)cc1
  UCH37 inh: 5.0
  Ecoli growth: 0.7
> CC(CC(=O)Nc1ccc(Cl)cc1)=NNC(=O)C(=O)NCCO
  UCH37 inh: 6.3
  Ecoli growth: 0.68
> CN(C)/C=C(\C#N)C(=O)NN=Cc1ccccc1
  UCH37 inh: 6.5
  Ecoli growth: 0.69
> CCN(CC)c1ccc(C=NNC(=O)OC)c(O)c1
  UCH37 inh: 3.0
  Ecoli growth: 0.7

More entries
Each structure is followed by: UCH37 inh	Ecoli growth
> CC(=O)Nc1ccc(C=NNc2nncc3ccccc23)cc1
    9.5	0.69
> CCOC(=O)C1=C(C)N=c2sc(=Cc3ccc(C(=O)O)cc3)c(=O)n2C1c1ccc(F)cc1 (stereo not drawn)
    10	0.67
> COc1ccc(NC(=O)CCC(=O)NN=Cc2ccncc2)cc1
    1.0	0.65
> O=C(CCCOc1ccc(Cl)cc1Cl)NN=Cc1ccco1
    0.9	0.7
> Cc1cc(NN=Cc2ccccc2O)nc(-c2ccccc2O)n1
    -7.0	0.66
> CCc1nnc(NN=Cc2ccc(-c3ccc([N+](=O)[O-])cc3)o2)n1N
    15	0.67
> Cn1c(=O)n(N=Cc2ccccc2)c2ccccc21
    0.1	0.67
> COCC(=O)NN=Cc1c(C)[nH]n(-c2ccccc2)c1=O
    4.1	0.68
> CC(=NO)C(C)(C)NC(=O)Nc1ccc(Cl)cc1
    4.2	0.7
> C/C(C=NNC(=O)c1cc(C)oc1C)=C/c1ccccc1
    5.3	0.66
> Cc1ccc(C=NN(Cc2ccccc2)c2ccccc2)o1
    4.0	0.69
> O=C(NCCN1CCCCC1)C(=NO)c1ccccc1
    0.7	0.74
> C=CCNC(=S)NN=C(C)c1ccc(-n2ccnc2)cc1
    0.9	0.68
> Cn1cc(C(=O)NN=Cc2ccc([N+](=O)[O-])cc2)c2ccccc21
    6.7	0.69
> O=C(CON=C1CCCc2nonc21)Nc1ccc(Br)cc1
    -6.8	0.67
> CCCCCCCCCS(=O)(=O)NN=Cc1cccc([N+](=O)[O-])c1
    0.8	0.67
> CC(CC1CC(C)(C)OC1=O)=NNc1nc(-c2ccccc2)cs1 (stereo not drawn)
    1.0	0.66
> CCOC(=O)NN=Cc1ccc(C)s1
    2.4	0.66
> Cc1ccc(C(=O)ON=C2CC3CCC2(C)[C@@]3(C)CBr)cc1 (stereo partly drawn)
    2.3	0.67
> Cc1ccccc1OCCOc1ccc([N+](=O)[O-])cc1C=Nn1cnnc1
    2.4	0.68
> COc1cc2c(cc1OC)C1CC(=NO)C(CC(C)C)CN1CC2 (stereo not drawn)
    0.5	0.7
> Cc1c(N2C(=O)CSC2=NN=Cc2ccc(Br)cc2)c(=O)n(-c2ccccc2)n1C
    -2.2	0.78
> CC(=O)Nc1ccc(C(C)=NNC(=O)C2CC2c2ccccc2)cc1 (stereo not drawn)
    2.1	0.65
> CC(=O)N1CCC2(CC1)CC(=NNC(=S)Nc1ccccc1F)c1cc(O)ccc1O2
    -54	0.71
> Cc1ccc(C=NNC(=O)CSc2nc3ccccc3n2Cc2ccccc2)o1
    2.0	0.67
> COc1ccc(OC)c(C=NNC(=O)C(=O)N2CCCC2)c1
    1.1	0.63
> C=CCOc1ccc(C=NNC(=O)C2CCCC2)cc1OCC
    2.4	0.71
> CNc1nc(NN=Cc2ccc([N+](=O)[O-])cc2)nc(Nc2ccccc2)n1
    6.9	0.7
> Cc1cc(Cl)ccc1NC(=O)C=NO
    3.5	0.66
> COc1ccc(C(=O)NN=C(C)CC(=O)NC2CCCCC2)c(OC)c1
    3.2	0.67
> COc1cccc(C=Nn2c(N)c(S(=O)(=O)c3cccs3)c3nc4ccccc4nc32)c1
    -124	0.73
> Cc1cc(C)n(CC(=O)NN=Cc2ccccn2)n1
    0.7	0.71
> N#CC(=NNc1ccc([N+](=O)[O-])cc1)C(N)=S
    29*	0.67
> Cc1ccc(C=Nn2c(C)nc3ccccc3c2=O)s1
    5.1	0.65
> Cc1ccc(S(=O)(=O)NCC(=O)NN=Cc2ccc(Cl)cc2Cl)cc1
    2.2	0.61
> CC(=NNC(=O)c1nnn(-c2nonc2N)c1C(C)C)c1ccc2ccccc2c1
    4.1	0.67
> NC(=NOC(=O)CCC1CCCCC1)c1ccc([N+](=O)[O-])cc1
    3.9	0.68
> NC(=O)NN=C(CCCCCCC(=NNC(N)=O)c1ccccc1)c1ccccc1
    3.4	0.65
> C(=NNc1nc(-c2ccccc2)cs1)c1cccnc1
    1.7	0.63
> CCN(CC)S(=O)(=O)c1ccc(NN=Cc2cc(OC)ccc2O)nc1
    4.9	0.71
> O=C(C=NO)NCCCNCc1ccccc1
    -0.4	0.67
> CCCOc1ccc(C=NNc2ccc(C(=O)O)cc2)c(OCCC)c1
    -11	0.71
> O=C(C[n+]1ccccc1)NN=Cc1cc(Br)ccc1F
    3.6	0.71
> Cc1ccc(C=Nn2c(-c3ccncc3)n[nH]c2=S)o1
    2.9	0.69
> Cc1nc2ccccc2c(=O)n1N=Cc1ccc(C(C)C)cc1
    -1.4	0.7
> COCc1cc(=O)[nH]c(N=C(N)Nc2ccc(Oc3ccccc3)cc2)n1
    0.8	0.62
> COc1cc(C=NNc2ccccn2)ccc1OCC(C)C
    -1.8	0.65
> O=C(NN=Cc1ccncc1)c1cccs1
    3.7	0.66
> CC(CCC(C)C)=NNC(=O)COc1ccccc1-c1ccccc1
    3.5	0.72
> Cc1nn(-c2ccccc2)c(C)c1C=NNC(=O)CSc1nc2ccccc2c(=O)n1-c1ccccc1
    3.7	0.73

Next records follow.
Each structure is followed by: UCH37 inh	Ecoli growth
> CNC(=O)N(O)C1N(N=Cc2cc(Br)ccc2O)C(=S)SC1(C)C (stereo not drawn)
    3.6	0.63
> S=c1nc(C23CC4CC(CC(C4)C2)C3)nc2sccn12
    1.6	0.65
> O=C(Cc1cccc2ccccc12)NN=C/C=C/c1cccc([N+](=O)[O-])c1
    4.5	0.7
> COc1ccc(OC)c(C=NNC(=O)c2csc3ccccc23)c1
    -28	0.71
> COc1cc(C=NNC(=S)NCc2ccccc2)ccc1OCC#N
    8.4	0.69
> CN(C)C=Nc1nc2nccc(-c3cccc(Cl)c3)n2n1
    i	0.67
> CC(SCc1ccccc1)C(=O)NN=Cc1cc2c(cc1Br)OCO2 (stereo not drawn)
    1.5	0.71
> Cc1cccc(CN(CC(=O)NN=Cc2ccco2)S(=O)(=O)c2ccc(Cl)cc2)c1
    -1.8	0.78
> O=C(NN=Cc1ccc(O)c(Br)c1)c1cc2c(ccc3ccccc32)o1
    -83	0.67
> COc1ccc(OC)c(C=NNC(=O)CNC(=O)c2cccc3ccccc23)c1
    i	0.67
> Cc1cc(=O)[nH]c(NN=Cc2c(C)nn(-c3ccccc3)c2C)n1
    3.8	0.74
> O=C(NN=Cc1cccc(O)c1)c1ccc2c(c1)OCCO2
    4.6	0.66
> COc1ccc(C(C)=NOCC(=O)Nc2nc3ccccc3s2)cc1
    0.0	0.68
> CCOc1cc(C=NNc2nc(N3CCCCC3)nc(N3CCCCC3)n2)ccc1OC(=O)c1ccco1
    3.5	0.73
> COc1ccc(OC)c(C=Nc2oc(-c3ccco3)c(-c3ccco3)c2C#N)c1
    -12	0.68
> CSc1ccc(C=NNC(=O)c2sccc2C)cc1
    -55	0.68
> Nc1nonc1C(=O)NN=Cc1cccc([N+](=O)[O-])c1
    7.4	0.69
> Cc1ccc(C(=O)NN=C(CC(C)C)c2ccccc2)cc1
    4.6	0.66
> CN(C)C=NC1=C(C#N)C(c2cccs2)c2ccc3ccccc3c2O1 (stereo not drawn)
    0.2	0.7
> COC(=O)c1nn(-c2ccccc2)c(Sc2ccc(C)cc2)c1C=NO
    -3.1	0.68

An excerpt from above in order of molar mass, rising.
Each structure is followed by: UCH37 inh	Ecoli growth
> CSc1ccc(C=NNC(=O)c2sccc2C)cc1
    -55	0.68
> Cc1ccc(C(=O)NN=C(CC(C)C)c2ccccc2)cc1
    4.6	0.66
> O=C(NN=Cc1cccc(O)c1)c1ccc2c(c1)OCCO2
    4.6	0.66
> Cc1cc(=O)[nH]c(NN=Cc2c(C)nn(-c3ccccc3)c2C)n1
    3.8	0.74
> CN(C)C=NC1=C(C#N)C(c2cccs2)c2ccc3ccccc3c2O1 (stereo not drawn)
    0.2	0.7

(more compounds)
Each structure is followed by: UCH37 inh	Ecoli growth
> COc1ccc2c(C=NNc3ccc(C(=O)O)cc3)c[nH]c2c1
    -29	0.64
> Cc1ccc(Oc2ccccc2C=NO)cc1
    2.2	0.71
> Oc1ccccc1C=NNc1cc(N2CCCC2)nc(N2CCCC2)n1
    17	0.65
> COc1cc(C=NNC(=O)C2CCN(CC(O)COCc3ccccc3)CC2)ccc1O (stereo not drawn)
    -9.8	0.71
> CCOc1ccc(NC(C)C(=O)NN=Cc2cccs2)cc1 (stereo not drawn)
    2.8	0.68
> COc1cc(C=NNC(=O)C2COc3ccccc3O2)cc(OC)c1O (stereo not drawn)
    -8.5	0.72
> CC1(C)OC2OC(C(=O)NN=Cc3ccccc3F)C3OC(C)(C)OC3C2O1 (stereo not drawn)
    -2.2	0.74
> Cc1cc(-c2ccccc2)nc(NN=Cc2ccccc2)n1
    2.2	0.67
> C/C(C=NNC(=O)Cn1nc(C)cc1C)=C/c1ccc(C(C)C)cc1
    -5.5	0.69
> CN(C)C=Nn1cnc2ccccc2c1=O
    0.7	0.68
> CC(=NNC(=S)NC(C)C)c1ccc2c(c1)OCCO2
    6.0	0.69
> COc1cc(C=NNC(=O)C2CC3C=CC2C3)ccc1O (stereo not drawn)
    -4.9	0.66
> COc1ccc(C(=O)NCC(=O)NN=C(C)/C=C/c2ccccc2)cc1OC
    6.0	0.65
> CCCCCC(=O)NN=Cc1ccccc1[N+](=O)[O-]
    -0.2	0.64
> COc1ccc(C=NNC(=O)C(O)(c2ccccc2)c2ccccc2)cc1OC
    5.6	0.73
> CC(=NNC(=O)CSCc1ccc(Cl)cc1)c1cccc(NC(=O)c2ccccc2)c1
    3.5	0.71
> CC(CC(=O)Nc1cccc(C(F)(F)F)c1)=NNC(=O)C(=O)NCCO
    8.0	0.69
> CC(C)(C)c1csc(NN=Cc2cccnc2)n1
    5.6	0.71
> Cc1cccc(C=NNC(=O)NC23CC4CC(CC(C4)C2)C3)n1
    0.9	0.68
> O=C(NN=Cc1ccc([N+](=O)[O-])cc1)c1[nH]ncc1Br
    2.0	0.66
> CC(=NNc1nc2c(s1)CCCC2)c1ccccc1
    1.0	0.67
> C=CCN1C(=O)C(=c2sc3nc(=O)c(Cc4ccccc4)nn3c2=O)c2ccccc21
    4.0	0.66
> C=CCN1C(=O)C(Cc2ccccc2)SC1=NN=Cc1cccs1 (stereo not drawn)
    -0.6	0.72
> CON=CCC(=O)Nc1ccc(Cl)cc1Cl
    4.2	0.63
> Cc1ccc(NC(=O)CCC(=O)NN=C/C=C/c2ccccc2)cc1
    3.5	0.69
> COc1ccc([N+](=O)[O-])cc1NC(=O)CC1SC(=Nc2cccc(C)c2C)N(N=Cc2cccc(OC)c2OC)C1=O (stereo not drawn)
    4.4	0.7
> ON=C1CCC(=NO)c2nn(-c3ccccc3Cl)nc21
    1.9	0.69
> Cc1ccc(NC(=O)CCC(=O)NN=Cc2ccco2)c(C)c1
    3.4	0.69
> Cc1ccc(N2CCN(N=C/C(Cl)=C/c3ccccc3)CC2)cc1
    6.0	0.71
> COc1ccc(C=Nn2cnn(Cc3ccccc3Cl)c2=S)cc1OC
    4.3	0.68
> O=C(NN=Cc1cc(Br)cs1)c1ccccc1[N+](=O)[O-]
    3.5	0.59
> CC1=CC(=NNC(=S)NCCc2ccccc2)CC(C)(C)C1
    0.1	0.63
> COc1cc(C=NNC(=O)CCC(=O)NC2CCCCC2)ccc1C
    0.0	0.63
> COc1cc(C=NN(C)S(=O)(=O)c2ccc(C)cc2)cc([N+](=O)[O-])c1O
    10	0.66
> Cc1cc(C=Nn2cnnc2)c(C)n1-c1ccc(OCc2ccc(Cl)cc2)cc1
    -0.4	0.71
> O=C(NN=C/C=C/c1ccccc1)c1cnccn1
    12	0.72
> COc1ccc(N2CC(C(=O)NN=Cc3c[nH]c4ccccc34)CC2=O)cc1 (stereo not drawn)
    7.3	0.72
> CN(C)c1ccnc(-n2cccc2C=NOCc2ccccc2)c1C#N
    4.9	0.76
> O=[N+]([O-])c1ccc(-c2nn(-c3ccccc3)cc2C=Nn2c(-c3ccncc3)n[nH]c2=S)cc1
    7.6	0.7
> COc1ccc(C=NNc2ccccn2)cc1O
    14	0.69
> O=C(NCc1cccnc1)C(=NO)c1ccccc1
    3.4	0.74
> COc1ccc(NC(C)C(=O)NN=Cc2c(O)ccc3ccccc23)cc1 (stereo not drawn)
    0.7	0.71
> CCCC(=O)Nc1ccc(C(=O)NN=Cc2ccc[nH]2)cc1
    11	0.67
